Screening data (PubChem)
RecA intein inh: Mtb RecA intein splicing inhibitors, primary screen, biochemical, fluorescence, HTS. Protein RecA (Mycobacterium tuberculosis (strain ATCC 25618 / H37Rv)), P9WHJ3. hit rate 0.75% among 290,000. cell-free RecA intein splicing. inhibition, %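 (about 9 µM by stock and volumes)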; in the data active = inhibition above about 30%;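 note: 0% = vehicle wells and 100% = reference inhibitor control wells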
Target sequence (P9WHJ3 whole entry, looked up): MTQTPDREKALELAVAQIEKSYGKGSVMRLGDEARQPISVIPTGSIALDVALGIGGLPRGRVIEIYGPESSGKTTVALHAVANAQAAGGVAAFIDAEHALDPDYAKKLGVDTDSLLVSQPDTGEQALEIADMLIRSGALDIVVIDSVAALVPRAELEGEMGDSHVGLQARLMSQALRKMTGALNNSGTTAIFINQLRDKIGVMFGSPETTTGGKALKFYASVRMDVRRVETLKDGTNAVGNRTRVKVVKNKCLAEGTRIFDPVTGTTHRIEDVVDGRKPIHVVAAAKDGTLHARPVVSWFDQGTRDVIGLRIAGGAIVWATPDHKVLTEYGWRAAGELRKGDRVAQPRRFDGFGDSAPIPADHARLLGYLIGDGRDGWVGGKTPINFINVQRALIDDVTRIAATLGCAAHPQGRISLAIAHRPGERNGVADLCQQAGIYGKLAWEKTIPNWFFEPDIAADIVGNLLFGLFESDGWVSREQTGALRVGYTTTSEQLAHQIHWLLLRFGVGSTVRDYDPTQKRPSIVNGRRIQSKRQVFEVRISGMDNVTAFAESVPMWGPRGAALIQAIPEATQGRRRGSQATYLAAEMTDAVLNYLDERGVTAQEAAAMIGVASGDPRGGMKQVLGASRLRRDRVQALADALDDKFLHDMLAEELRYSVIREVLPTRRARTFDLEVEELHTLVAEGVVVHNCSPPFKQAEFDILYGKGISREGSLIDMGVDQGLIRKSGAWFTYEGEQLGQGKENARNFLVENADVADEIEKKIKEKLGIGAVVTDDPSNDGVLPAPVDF
Mtb growth: M. tuberculosis H37Rv growth inhibitors, H37Rv strain (AID 1626); inhibition, % at 10 µM; hits with a dose series show IC50 in µM; M. tuberculosis H37Rv growth inhibition; higher % means a stronger effect; hit rate 0.95% among 220,000;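 active = confirmed in a dose series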;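 note: bacteria incubated seven days before Alamar blue readout; 0% = bacteria only wells and 100% = bacteria with antibiotic wells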
Arbovirus anti: antivirals against arbovirus infection, primary screen, cell-based, full library, 10K replicate subset | hit rate 0.37% among 200,000 | AID 1251, 2008 | inhibition, % at 10 µM | arbovirus infection cell-based antiviral screen;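 active = inhibition from about 30%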;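 note: bluetongue infection of BSR cells; cell survival read as ATP light after 72 h; 0% = infected wells without compound and 100% = uninfected wells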
YopH PTP inh: YopH tyrosine phosphatase inhibitors, primary screen, biochemical, fluorescence Ex485/Em525; YopH tyrosine phosphatase [Yersinia enterocolitica]; inhibition, %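 (about 10 µM by stock and volumes)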; hit rate 0.16% among 140,000; AID 898, 2007;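 active = inhibition of 50% or more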;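 note: controls were vehicle for no effect and minimum signal wells for full effect; inactives centre near -20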
Mtb betalactam: beta-lactam sensitization of Mtb H37Rv, H37Rv | M. tuberculosis H37Rv growth with meropenem, percent inhibition; hits of this screen are not shown here | inhibition, % at 25 µM | hit rate 0.27% among 330,000 | AID 434955, 2010;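 active = about 74% or more and at least 40 points above the plate without the antibiotic, then above 30% in a dose series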;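 note: growth measured after seven days incubation then overnight dye step; 0% = bacteria only wells and 100% = bacteria with antibiotic; twin plates without the antibiotic show which effects depend on it; some results filed as inactive read as strong as hits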
Arbovirus anti repeat: second read-out of Arbovirus anti, no call of its own (marks repeat the call); inhibition, %; measured here: 10K subset replicate screen; many hits read low in the repeat;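 first of two repeat runs on a subset; 0% = infected and 100% = uninfected wells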
* marks the source's active call; other numbers are inactive results; x = no result given; & = joins results of further samples.

Start of the data: the first 15 entries, ahead of the listing:
SMILES | RecA intein inh | Mtb growth | Arbovirus anti | YopH PTP inh | Mtb betalactam | others
COc1ccc(N2C(=O)NC3CC2(C)Oc2ccc(Br)cc23)cc1OC (stereo not given) | 0.5 | -6% | -7 | -23 | 11
CS(=O)(=O)n1nc(-c2ccc(Cl)cc2)nc1N | 5.9 | -3% | -5 | x | -4
O=C(c1cccc(Cl)c1)N1CCCc2ccccc21 | -0.4 | x | x | x | 7
CCC(C)N(CC(=O)Nc1cccc(C)c1C)C(=O)CCl (stereo not given) | 43* | 6% | 10 | x | 86
CCn1c(CNC(=O)c2ccco2)nnc1SCC(=O)Nc1cc(C(F)(F)F)ccc1Cl | 0.5 | 1% | 2 | -19 | 1
Cc1ccccc1NC(=O)c1cccc(NC(=O)c2c(C(=O)O)cccc2[N+](=O)[O-])c1 | 2.6 | x | x | x | -9
CN(C)c1ccc(/C=N/OC(=O)Nc2ccccc2)cc1 | 3.7 | x | x | x | -1
Cc1cccc(C)c1NC(=O)CN(C)C(=O)c1ccc(N2C(=O)CCC2=O)cc1 | -3.9 | x | x | x | -7
C/C(=N\NC(=O)c1cccc(Cl)c1)C1C(=O)c2ccccc2C1=O | 8.6 | 6% | 12 | -27 | 14
O=C(Nc1ncccn1)C1CCCN1S(=O)(=O)c1ccc(Cl)c(Cl)c1 (stereo not given) | -1.7 | -3% | 6 | -23 | -3
CCOC(=O)c1cc(NC(=O)OC)c(C)nc1C | 0.3 | -2% | 16 | -35 | -8 | Arbovirus anti repeat=0
C/C(=N/NC(=O)c1ccccc1)C(=O)O | -5.6 | -4% | 2 | x | 3
COc1ccccc1C(=O)N/C(=C/c1ccco1)C(=O)Nc1cccc(C(=O)O)c1 | 0.8 | x | x | x | -2
Cc1ccc(N(C(=O)CS(=O)CC(=O)Nc2ccc(F)cc2)C(C)C(=O)NC(C)(C)C)cc1 (stereo not given) | -2.0 | x | x | x | -2
Cc1ccc(Oc2ccc(OCC(=O)OC3CCS(=O)(=O)C3)cc2)cc1 (stereo not given) | -3.0 | 3% | x | 29 | 35

This part in full, repeating the preview:
SMILES | RecA intein inh | Mtb growth | Arbovirus anti | YopH PTP inh | Mtb betalactam | others
COc1ccc(N2C(=O)NC3CC2(C)Oc2ccc(Br)cc23)cc1OC (stereo not given) | 0.5 | -6% | -7 | -23 | 11
CS(=O)(=O)n1nc(-c2ccc(Cl)cc2)nc1N | 5.9 | -3% | -5 | x | -4
O=C(c1cccc(Cl)c1)N1CCCc2ccccc21 | -0.4 | x | x | x | 7
CCC(C)N(CC(=O)Nc1cccc(C)c1C)C(=O)CCl (stereo not given) | 43* | 6% | 10 | x | 86
CCn1c(CNC(=O)c2ccco2)nnc1SCC(=O)Nc1cc(C(F)(F)F)ccc1Cl | 0.5 | 1% | 2 | -19 | 1
Cc1ccccc1NC(=O)c1cccc(NC(=O)c2c(C(=O)O)cccc2[N+](=O)[O-])c1 | 2.6 | x | x | x | -9
CN(C)c1ccc(/C=N/OC(=O)Nc2ccccc2)cc1 | 3.7 | x | x | x | -1
Cc1cccc(C)c1NC(=O)CN(C)C(=O)c1ccc(N2C(=O)CCC2=O)cc1 | -3.9 | x | x | x | -7
C/C(=N\NC(=O)c1cccc(Cl)c1)C1C(=O)c2ccccc2C1=O | 8.6 | 6% | 12 | -27 | 14
O=C(Nc1ncccn1)C1CCCN1S(=O)(=O)c1ccc(Cl)c(Cl)c1 (stereo not given) | -1.7 | -3% | 6 | -23 | -3
CCOC(=O)c1cc(NC(=O)OC)c(C)nc1C | 0.3 | -2% | 16 | -35 | -8 | Arbovirus anti repeat=0
C/C(=N/NC(=O)c1ccccc1)C(=O)O | -5.6 | -4% | 2 | x | 3
COc1ccccc1C(=O)N/C(=C/c1ccco1)C(=O)Nc1cccc(C(=O)O)c1 | 0.8 | x | x | x | -2
Cc1ccc(N(C(=O)CS(=O)CC(=O)Nc2ccc(F)cc2)C(C)C(=O)NC(C)(C)C)cc1 (stereo not given) | -2.0 | x | x | x | -2
Cc1ccc(Oc2ccc(OCC(=O)OC3CCS(=O)(=O)C3)cc2)cc1 (stereo not given) | -3.0 | 3% | x | 29 | 35
O=C(Nc1ccc2nc(-c3ccco3)[nH]c2c1)c1cccs1 | 8.9 | 9% | -18 | -25 | -5
CC(C)(C)OC(=O)N[C@@H](Cc1ccccc1)C(=O)N1CCC(C(=O)O)CC1 | -1.0 | -2% | -1 | -18 | 3
COc1cc2sc(C)nc2c2sccc12 | 0.9 | -5% | 0 | -4 | 4
O=C(CSc1nnnn1-c1ccccc1)Nc1ncc2c(n1)CC(c1ccco1)CC2=O (stereo not given) | 0.7 | -1% | -2 | 2 | -6
O=C(N/N=C/c1ccccc1OCc1ccccc1)c1cccnc1 | 0.4 | 16% | 3 | -12 | 6
Cc1nc(NCc2ccc3c(c2)OCO3)c2nnn(Cc3ccccc3)c2n1 | -1.1 | -2% | 3 | -3 | -3
COc1ccc(-n2c(COc3cccc4ccccc34)nnc2SCC(=O)NCc2ccco2)cc1 | 20 | 2% | -32 | -1 | 0
Cc1nn(-c2ccccc2)c(Cl)c1/C=C(\C#N)C(=O)NC(C)C | 16 | 2% | -2 | -27 | 2
CN1C(=O)C(O)(CC(=O)/C=C/c2ccco2)c2ccccc21 (stereo not given) | -1.5 | 2% | -9 | x | -7
Cc1ccccc1S(=O)(=O)Cc1ccc(C(=O)O)o1 | -1.4 | -3% | 10 | -31 | -11
CCOc1ccc2c(c1)C(N(CCN1CCOCC1)C(=O)Nc1ccccc1)CC(C)(C)O2 (stereo not given) | 3.2 | -2% | 5 | x | -9
C=CCN1C(=O)C(Cc2ccc(OC)cc2)S/C1=N\N=C\c1cccs1 (stereo not given) | x | -5% | 3 | -4 | 0
COc1ccc(NS(=O)(=O)c2cc3c(cc2C)N(C(C)=O)CCO3)c(OC)c1 | 3.1 | x | x | x | 2
CCOC(=O)c1c(C)c(C(=O)OCC)n(C)c1C | -0.9 | -2% | x | x | 3
CSc1ccc(/C=N/Nc2cccc(C(=O)O)c2)cc1 | x | -3% | 5 | x | x
CN(C)/C=C/c1onc(-c2c(F)cccc2Cl)c1C#N | 0.5 | -6% | -3 | x | 5
CSc1nc2nccc(/C=C\c3ccccc3)n2n1 | 2.2 | 4% | -24 | -9 | 13
O=C(CCCN1CC=C(n2c(=O)[nH]c3ccccc32)CC1)c1ccc(F)cc1 | 1.7 | -10%&-1% | 22&5 | -31 | -2
O=C(C1CCCN(Cc2ccccc2[N+](=O)[O-])C1)N1CCCCC1 (stereo not given) | -0.8 | x | x | x | -6
CC(NCc1ccc(S(N)(=O)=O)cc1)C(=O)Nc1ccc([N+](=O)[O-])cc1Cl (stereo not given) | 5.5 | -5% | 9 | x | 1
N#CC(CO)(Cc1ccc(OC(F)F)cc1)c1nc2ccccc2[nH]1 (stereo not given) | 0.6 | 4% | 4 | -27 | 5
CCN(CC)S(=O)(=O)c1ccc(N2CCOCC2)c(NC(=O)C2COc3ccccc3O2)c1 (stereo not given) | 1.4 | -3% | 6 | x | -14
Cc1ccc(SCc2cc(=O)[nH]c(N3CCCCC3)n2)cc1 | 1.9 | -9% | -3 | -9 | 3
O=C(Nc1ccccc1)c1ccc2c(c1)CCN2S(=O)(=O)c1ccccc1 | 9.0 | x | x | x | -3
CCn1c(SCC(=O)N/N=C/C=C/c2ccco2)nnc1-c1ccc(OC)cc1 | 3.9 | -7% | 1 | -20 | -4
CCc1cccc(NC(=O)Cc2ccc([N+](=O)[O-])cc2)c1 | 0.5 | 59% | 11 | -21 | -2
O=C(NC(Cc1c[nH]c2ccccc12)C(=O)O)c1ccccc1 (stereo not given) | -0.8 | -2% | 0 | 4 | 6
COc1ccccc1NC(=O)CCN1C(=O)c2ccccc2S1(=O)=O | -1.0 | 4% | 3 | x | -4
CCOc1ccc(N(Cc2cc3cc(C)ccc3[nH]c2=O)C(=O)COC)cc1 | -1.4 | x | x | x | -2
Cc1ccc(N2C(=O)S/C(=C/c3cn(C)c4ccccc34)C2=O)cc1 | -0.6 | x | 3 | -25 | -6
CNC(=O)/C(=C/c1ccc2c(c1)OCO2)NC(=O)c1ccc(Br)cc1 | 1.1 | 9% | -4 | -14 | -2
N=c1c[n+](-c2ccc(Cl)cc2)[n-]o1 | 1.4 | -1% | -7 | -14 | -14
C=CCc1cc(C=O)cc(OC)c1OCc1ccc(C(=O)O)cc1 | 0.3 | 5% | -1 | x | -11
COc1cccc(-c2nc(CS(=O)(=O)CC(=O)Nc3ccccc3C)c(C)o2)c1 | 0.7 | x | x | x | 2
CC(=O)c1ccc(NC(=O)Nc2ncn(Cc3cccc(C)c3)n2)cc1 | -0.5 | -1% | -5 | 24 | 6

At a glance, part of the list above:
SMILES | RecA intein inh | Mtb growth | Arbovirus anti | YopH PTP inh | Mtb betalactam | others
COc1cccc(-c2nc(CS(=O)(=O)CC(=O)Nc3ccccc3C)c(C)o2)c1 | 0.7 | x | x | x | 2
CC(=O)c1ccc(NC(=O)Nc2ncn(Cc3cccc(C)c3)n2)cc1 | -0.5 | -1% | -5 | 24 | 6

Carrying on:
SMILES | RecA intein inh | Mtb growth | Arbovirus anti | YopH PTP inh | Mtb betalactam | others
Cc1nnsc1C(=O)N1CCCC(Nc2ccc(F)c(F)c2)C1 (stereo not given) | -0.9 | x | x | x | -6
CCCn1cnc2c(c1=O)c1nc3ccccc3nc1n2CCC1=CCCCC1 | x | -5% | -2 | -46 | x
O=C(CN(C(=O)CNC(=O)c1cccs1)c1ccccc1)NC1CCCCC1 | 4.2 | x | x | x | -3
O=C(NC1CCCCC1)C1CC=CCC1C(=O)OCC(Cl)=C(Cl)Cl (stereo not given) | 2.0 | 8% | 3 | -5 | -4
Cc1ccccc1NC(=O)C(C)SCc1ccccc1 (stereo not given) | 2.8 | x | x | x | -6
COc1cc(C(=O)Nc2cccc3cccnc23)cc(OC)c1OC | -12 | -4% | 4 | -15 | 17
COc1cc(C(C)=O)ccc1OC(=O)c1cc2cccc(OC)c2oc1=O | -2.5 | 11% | 6 | x | -1
CCOc1ccc(C(C)(C)C)cc1S(=O)(=O)N1CCOCC1 | 1.7 | 4% | -1 | 12 | 2
COc1ccccc1NC1=C(Cl)C(=O)N(c2ccccc2)C1=O | 0.5 | 6% | -1 | -40 | 20
CCC(C)/C(C)=N/NC(=O)C1COc2ccccc2O1 (stereo not given) | -2.6 | -7% | -1 | 2 | 4
COc1cccc(-c2nc(=S)c3c(o2)CCCC3)c1 | 4.3 | 10% | 1 | x | 2
FC(F)(F)c1cc(-c2ccccc2)nc(N2CCCCC2)n1 | 2.4 | -6% | -5 | -24 | 3
COc1ccc(/C=N/Nc2cc(N(C)C)nc(N(C)C)n2)cc1 | 4.2 | 3% | 0 | -22 | 21
O=C(NCCSc1ccccc1)c1cncc(Br)c1 | 1.7 | 0% | -3 | -61 | -11
CCc1ccc(/C=C2/SC(=S)N(CCC(=O)Nc3cccc(C(=O)O)c3)C2=O)cc1 | 3.7 | x | x | x | -1
O=C(NCc1ccccc1)c1onc(CS(=O)(=O)c2ccccn2)c1C(=O)NCc1ccccc1 | 1.8 | x | x | x | 0
COc1ccc(OC)c(NC(=O)C2CCCN2S(=O)(=O)c2cccc3nsnc23)c1 (stereo not given) | -6.7 | x | x | x | 9
Cc1nc(Cl)c(C#N)cc1-c1ccccc1 | 2.1 | -5% | 24 | -34 | 7
Cc1ccc(CNc2cccnc2)cc1 | -0.8 | x | x | x | 5
O=c1ccnc2n1COCS2 | -2.3 | -1% | x | x | -7
Cc1cccc(NC(=S)N2CCC(c3nc4ccccc4s3)CC2)c1 | -1.6 | -2% | 16 | -37 | 13
O=C1CC(N2CCC(O)(c3ccc(Cl)cc3)CC2)C(=O)N1Cc1ccc(N2CCCC2=O)cc1 (stereo not given) | -1.0 | 4% | 1 | -8 | -11
Cc1sc(-n2cccc2)c(C(=O)O)c1C | 2.3 | x | 9 | -49 | 13
CC(C)CCC1(C)NC(=O)N(CC(=O)c2ccc[nH]2)C1=O (stereo not given) | 3.7 | x | x | x | -11
CCn1c(/C=C2\C(=O)N(C)c3ccccc32)nc2ccccc2c1=O | 5.3 | x | 6 | -35 | -3
O=C(CCn1nnc2ccccc21)Nc1nnc(-c2ccccc2F)s1 | -12 | -1% | -5 | -44 | 11
CCCC(=O)NNC(=O)c1ccoc1C | -4.2 | 7% | 4 | -7 | 1
CC(C)(C)C(=O)Nc1cc(C(F)(F)F)ccc1-n1ccnc1 | x | -2% | 0 | x | 7
O=C(CC1C(=O)NCCN1Cc1c(F)cccc1Cl)NCCc1ccccn1 (stereo not given) | 0.3 | -3% | -4 | x | -12
Cc1cc(C(F)(F)F)c2c(C)nn(CCc3nn[nH]n3)c2n1 | -0.4 | -4% | 5 | -11 | -4
CC(CC(C)C(=O)N1CCOCCN(C(=O)C(C)CC(C)C(=O)O)CCOCC1)C(=O)O (stereo not given) | -0.1 | -9% | -6 | -28 | -4

Only part of the results is shown; rates above refer to the full screens.
